# Bioassay records deposited in PubChem BioAssay by National Center for Advancing Translational Sciences (NCATS).
# StopGo reporter – lowers the luciferase signal of an FMDV 2A StopGo reporter. human cells with a luciferase reporter of 2A StopGo recoding; control for the full effect not named in the record. Potency, µM (top dose mostly 57.9 µM), inactives show at the top dose signal change, negative = less light. 410,000 compounds, 1.2% hits; active = well fitted falling curve with a large enough effect; inconclusive = small, poorly fitted or top-dose-only effect; inactive = no such curve, though single readings can be large or run the other way; tested in HEK293T cells; note: % is set by controls: 0 for no effect and ±100 for the full control effect; nearly all actives have a fitted effect of over 45% in size; luciferase light after 4 h
# Cruzain inh Det – inhibitors of Trypanosoma cruzi cruzain with detergent | purified cruzain, Z-FR-AMC fluorescence, 0.01% Triton | Potency, µM, for inactives: max response, negative = inhibition, hits mostly inhibitors | AID 1478 | P25779 | 200,000 compounds, 0.43% hits; active = well fitted curve in the direction sought with a large enough effect; inconclusive = small, poorly fitted or top-dose-only effect, or another doubt; inactive = no such curve, though single readings can be large; an effect the other way counts as inactive or inconclusive;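 note: plate controls were neutral wells for no effect and buffer without enzyme for full effect; nearly all actives have a fitted effect of over 40% in size; top concentration of the series not given in the record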
# Target sequence (P25779 123-467 limits assumed): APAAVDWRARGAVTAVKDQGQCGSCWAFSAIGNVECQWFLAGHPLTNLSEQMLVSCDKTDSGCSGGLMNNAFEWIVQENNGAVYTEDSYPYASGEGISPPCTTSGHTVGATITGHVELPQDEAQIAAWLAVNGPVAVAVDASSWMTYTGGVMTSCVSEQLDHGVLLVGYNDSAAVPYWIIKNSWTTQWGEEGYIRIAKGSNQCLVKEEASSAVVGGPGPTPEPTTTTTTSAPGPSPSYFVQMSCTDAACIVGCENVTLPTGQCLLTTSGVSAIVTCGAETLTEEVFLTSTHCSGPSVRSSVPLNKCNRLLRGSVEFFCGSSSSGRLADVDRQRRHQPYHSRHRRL
#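 Read-out: AMC fluorescence (360 nm excitation, 450 nm emission), four reads over 2 min, first-to-third difference used. Conditions: cruzain 1.5 nM, Z-FR-AMC 2 uM, pH 5.5 acetate, 5 mM DTT, 0.01% Triton X-100.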
# Lassa entry inh – Lassa virus entry inhibition. Lassa virus pseudotype entry inhibition, cell reporter; control for the full effect not named in the record. Potency, µM (series often up to 37.9 µM), for the others: at the top dose activity change, negative = inhibition, hits mostly inhibitors. 300,000 compounds, 1.2% hits; active means well fitted inhibition curve with a large enough effect; inconclusive means small, poorly fitted or top-dose-only effect, or effect the other way; inactive means flat fitted curve, though single readings scatter; tested in HEK293 cells; note: % is set by controls: 0 for no effect and ±100 for the full control effect; nearly all actives have a fitted effect of over 50% in size; luciferase read-out
# RE007 growth inh – less growth of the S. pombe RE007 Vpr strain; S. pombe RE007 Vpr strain, BacTiter-Glo ATP luminescence, 24 h; control for the full effect not named in the record; Potency, µM (highest dose often 92.2 µM), for inactives: at the top dose activity change, negative = less growth; 360,000 compounds, 0.21% hits; AID 651644; active = well fitted falling curve with a large enough effect; inconclusive = small, poorly fitted or top-dose-only effect; inactive = no such curve, though single readings can be large or run the other way;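 note: % is set by controls: 0 for no effect and ±100 for the full control effect; nearly all actives have a fitted effect of over 50% in size; the assay follows cell death caused by Vpr and the record does not say whether a fall means rescue or toxicity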
#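 Fission yeast RE007 carrying one integrated HIV-1 vpr copy, seeded at OD 0.01 in PMG+AL medium with 23 nL pinned compound. Grown 24 h at 30 degrees; viability read by BacTiter-Glo luminescence after 5 min.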
# MARV entry inh – Marburg virus entry inhibition | 300,000 compounds, 1.8% hits | Potency, µM (series often up to 37.8 µM), for inactives: at the highest dose activity change, negative = inhibition, actives largely listed as inhibitors | Marburg virus pseudotyped entry inhibition, cell reporter; control for the full effect not named in the record; about a third of the inactives were read at about 46 µM | AID 540276; active = well fitted inhibition curve with a large enough effect; inconclusive = small, poorly fitted or top-dose-only effect, or effect the other way; inactive = flat fitted curve, though single readings scatter; tested in HEK293 cells; about a fifth of its hits are not listed in these tables; note: % is set by controls: 0 for no effect and ±100 for the full control effect; luciferase read-out
# Cruzain inh noDet – inhibitors of Trypanosoma cruzi cruzain without detergent. P25779. purified cruzain, Z-FR-AMC fluorescence, no detergent. Potency, µM, for the others: max response, negative = inhibition, actives largely listed as inhibitors. 200,000 compounds, 2.3% hits; active = well fitted curve in the direction sought with a large enough effect; inconclusive = small, poorly fitted or top-dose-only effect, or another doubt; inactive = no such curve, though single readings can be large; an effect the other way counts as inactive or inconclusive;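 note: plate controls were enzyme without inhibitor for no effect and buffer without enzyme for full effect; nearly all actives have a fitted effect of over 40% in size; top concentration of the series not given in the record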
#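 Purified cruzain at 1.5 nM, pre-incubated 15 min with compound at room temperature in 100 mM sodium acetate pH 5.5, 5 mM DTT, 0.00005% Triton X-100. Reaction started with 2 uM Z-FR-AMC; AMC fluorescence increase over 60 s gives rate.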
# SARS PLpro yeast – blocks SARS-CoV papain-like protease in a yeast assay; AID 485353; S. cerevisiae expressing SARS-CoV PLpro, growth rescue; control for the full effect not named in the record; Potency, µM (highest dose often 32.9 µM), for inactives: at the highest dose activity, positive = growth rescue; 330,000 compounds, 0.19% hits; note: 0% is about no effect; nearly all actives have a fitted effect of over 55% in size; growth read by luminescence after 48 h
# NS1 inh – influenza NS1 inhibition; S. cerevisiae slowed by influenza A NS1, growth recovery by OD600; Potency, µM (highest dose often 46.1 µM), without a hit: at the highest dose activity, positive = more growth; 270,000 compounds, 0.4% hits; note: actives are rising curves; nearly all actives have a fitted effect of over 50% in size
#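 In this qHTS, NS1 from influenza A is expressed in budding yeast, where it slows growth. Cells are switched from glucose to 2% galactose medium (pH 6.0, -URA), treated with compound, and growth recovery is read at OD600.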
# * marks the source's active call; other numbers are inactive results; ? = inconclusive; . = not tested or not shown; & = joins results of further samples; ! = a repeat was not active; [ ] = remark or other dose. Unless noted, calls come from the whole dose curve; as a rule, active means well fitted rising curve with a large enough effect; inconclusive means small, poorly fitted or top-dose-only effect; inactive means no such curve, though single readings can be large or run the other way. Potency is the fitted concentration of half-maximal effect.
# Second line of a record – MARV entry inh	Cruzain inh Det	SARS PLpro yeast	StopGo reporter	Cruzain inh noDet	NS1 inh	RE007 growth inh	Lassa entry inh
- O=C(c1ccc(-c2nc3ccccc3s2)s1)N1CCOCC1
    ?	.	-3.6%	8.91µM*	.	.	?	3.55µM*
- CC(Sc1nc(=O)cc(N)n1CCc1ccccc1)C(=O)Nc1ccc(Cl)cc1 (stereo not given)
    .	-6.0%	.	-12.9%	-29.0%	.	.	.
- CN(Cc1ccccc1)C1CCN(Cc2ccccc2[N+](=O)[O-])CC1
    ?	.	-0.9%	-13.6%	.	-9.9%	-4.8%	1.5%[46.1 µM]
- Cc1noc(C)c1S(=O)(=O)N1CCCC(C(=O)N2CCc3ccccc3C2)C1 (stereo not given)
    .	-0.8%	0.5%	?	-1.3%	-19.0%	17.8%	.
- C/C(=N\NC(=O)c1ccc(N(C)C)cc1)c1ccc(C)cc1C
    ?	-5.3%	-9.1%	11.6%	-7.8%	-10.3%	7.5%	?
- O=C(COc1ccc(Cl)cc1Cl)Nc1ccc(CN2CCCCC2)cc1
    22.2%[46.1 µM]	.	0.0%	?	.	0.1%	-2.8%	-0.6%
- COc1ccc(CCC(=O)NC(C)c2ccccc2)cc1OC (stereo not given)
    .	.	-0.9%	9.0%	.	3.4%	1.3%	.
- CSc1ccccc1OCc1cc(C(=O)N2CCN(c3ccccc3)CC2C)no1 (stereo not given)
    -13.4%	.	2.5%	5.8%	.	?	1.9%	?
- CCOc1ccc(CCNC(=O)c2sc3nc4n(c(=O)c3c2C)CCCC4)cc1
    .	-3.8%	.	-18.8%	-21.4%	.	.	6.9%[46.1 µM]
- COc1ccc(CCNC(=O)c2ccc(Cn3c(=O)c4ccccc4n(Cc4ccc(F)cc4Cl)c3=O)cc2)cc1OC
    ?	-2.2%	.	-7.4%	0.1%	.	.	11.6%[46.1 µM]

# Full records from above. Order of screens: MARV entry inh	Cruzain inh Det	SARS PLpro yeast	StopGo reporter	Cruzain inh noDet	NS1 inh	RE007 growth inh	Lassa entry inh
# Profile of O=C(COc1ccc(Cl)cc1Cl)Nc1ccc(CN2CCCCC2)cc1 : 22.2%[46.1 µM]	.	0.0%	?	.	0.1%	-2.8%	-0.6%
# Profile of CCOc1ccc(CCNC(=O)c2sc3nc4n(c(=O)c3c2C)CCCC4)cc1 : .	-3.8%	.	-18.8%	-21.4%	.	.	6.9%[46.1 µM]

# (next part)
# Second line of a record – MARV entry inh	Cruzain inh Det	SARS PLpro yeast	StopGo reporter	Cruzain inh noDet	NS1 inh	RE007 growth inh	Lassa entry inh
- Cc1cc(Cl)ccc1OCC(=O)N1CC(C)CC(C)C1 (stereo not given)
    ?	-4.2%	10.1%	-12.6%	7.3%	-12.6%	-2.1%	-20.2%
- O=C(NC(=S)NC1CCS(=O)(=O)C1)c1cccs1 (stereo not given)
    2.8%	-0.2%	-0.8%	-18.4%	-6.1%	14.7%	4.9%	0.7%
- CN1C(=O)C(C)(C2=CCCCC2)C(=O)NC1=S (stereo not given)
    ?	.	.	0.0%	.	.	6.4%	6.8%[46.1 µM]
- Cc1nc2ccc(C(=O)N3CCSCC3)cc2s1
    -2.0%	1.2%	21.4%	5.8%	?	8.9%	-9.3%	10.6%
- Cc1c(NC(=O)NCc2ccccc2)c(=O)n(-c2ccccc2)n1C
    -3.0%	-2.2%	-1.9%	-16.2%	-5.2%	1.2%	-7.4%	-20.7%
- CC(C)c1ccc2c(c1)c(SC(C)(C)C)c(CC(C)(C)C(=O)O)n2Cc1ccc(Cl)cc1
    6.51µM*	-21.6%&1.1%	-2.1%	-10.4%&-2.0%	7.94µM*!	-12.5%	2.5%[18.4 µM]	?
- O=C(Cc1ncc(C(F)(F)F)cc1Cl)NCc1ccco1
    ?	.	-0.8%	-4.5%	.	.	15.5%	8.0%[46.1 µM]
- CCOc1ccc(CCNC(=O)CSc2nnnn2-c2ccccc2Cl)cc1OCC
    8.1%[46.1 µM]	-3.5%	.	-25.0%	?	.	.	4.4%[46.1 µM]
- COC(=O)C1=C(C(=O)OC)C2C(C)=CC(C)=CN2C(C(=O)OC)=C1C(=O)OC (stereo not given)
    14.6%	0.7%	4.5%	-7.7%	-1.2%	7.5%	-7.0%	8.3%
- CCC(C(=O)NC1CCCCC1)n1c(SCc2ccccc2F)nc2ccncc21 (stereo not given)
    -9.9%[46.1 µM]	12.6µM*	1.7%	17.3%&-10.0%	?	20.1%	-3.2%	16.8%[46.1 µM]
- Cc1cc(C)cc(-n2c3nc4ccccc4nc3c3c(=O)n(Cc4ccco4)cnc32)c1
    ?	-12.1%	-4.8%	?	?	?	29.5%	-10.6%
- Cc1ccc(NC(=O)NC(=O)N(C2CCCCC2)S(=O)(=O)c2ccccc2)cc1
    29.9%	-6.1%	-19.4%	119.4%[activator]	2.5%	-13.0%	4.1%	?
- CCn1cc(/C=N/NC(=O)c2ccc3c(c2)OCO3)c(C)n1
    8.7%	-3.7%	-6.2%	27.1%	-14.4%	-0.9%	12.9%	?
- O=c1[nH]c(SCc2c(F)cccc2Cl)nc2c1CCCC2
    9.2%[46.1 µM]	-2.6%	.	-13.0%	6.1%	.	.	-5.8%[46.1 µM]
- Cc1cc(C)cc(NC(=O)c2ccc3oc(=O)c(S(=O)(=O)c4ccc(F)cc4)cc3c2)c1
    .	1.4%	.	20µM*	-4.4%	.	.	-9.2%[46.1 µM]
- CCCc1nc2ccccc2c(=O)n1-c1c(C)n(C)n(-c2ccccc2)c1=O
    -0.3%	6.6%	0.4%	-4.2%	0.6%	4.47µM*	-2.8%	0.9%
- COc1ccccc1C(CNc1ccc(S(=O)(=O)N2CCCC2)cc1[N+](=O)[O-])N(C)C (stereo not given)
    ?	.	9.1%	-29.7%	.	23.3%	-8.2%	-19.2%
- O=C1c2ccccc2C(=O)N1CCSc1nnc(-c2ccco2)n1Cc1ccccc1
    3.3%	2.5%	1.4%	15.9%	-3.1%	-36.8%	8.2%	?
- CC(CNC(=O)c1cnn(-c2ccc(F)cc2)c1-n1cccc1)c1ccccc1 (stereo not given)
    .	-6.6%	.	?	3.5%	.	.	-1.6%[46.1 µM]
- O=C(COc1ccc2ccc(=O)oc2c1)NCC(O)c1ccccc1 (stereo not given)
    .	.	4.2%	-9.1%	.	9.8%	-0.9%	.
- Cn1c(=O)n(C)c2cc(/C=N/N=C3/NC(=O)C(CC(=O)O)S3)ccc21 (stereo not given)
    ?	.	-0.4%	-9.3%	.	7.9%	-5.3%	-2.0%[46.1 µM]
- CCOC(=O)c1ccc(N/C=C2/CCCC(C)C2=O)cc1 (stereo not given)
    ?	-4.7%	-7.5%	1.5%	0.3%	-6.7%	-26.0%	4.5%
- O=[N+]([O-])c1cccnc1N/N=C/c1ccccc1O
    ?	.	-0.6%	2.9%	.	.	-0.5%	?
- COc1ccc(C(=O)C2CCCN(C3CSCCSC3)C2)c(C)c1 (stereo not given)
    ?	.	0.4%	-19.0%	.	-1.4%	?	-7.2%[46.1 µM]
- C=CCSc1nc(N2CCOCC2)c2c(c1C#N)CC(C)(C)N(C)C2
    .	.	-0.3%	-21.1%	.	-1.6%	-5.5%	.
- CC(NC(=O)c1ccco1)c1nc(-c2ccccc2Cl)no1 (stereo not given)
    6.9%[46.1 µM]	.	-1.1%	-6.1%	.	-0.9%	16.7%	9.0%[46.1 µM]
- COc1cc(OC)cc(C(=O)Nc2ccc(Cn3ccnc3)cc2)c1
    .	.	-0.5%	13.4%	.	9.2%	-7.2%	.
- O=C1CC(N2CCN(c3ccccc3F)CC2)C(=O)N1c1ccc2c(c1)OCCO2 (stereo not given)
    8.9%	-3.0%	-5.5%	-18.8%	18.8%	?	-20.3%	-0.1%
- CCOc1ccc(S(=O)(=O)Nc2ccc3oc4c(c3c2)CC(C)CC4)cc1 (stereo not given)
    11.5%[46.1 µM]	-5.5%	.	22.8%	?	.	.	-12.7%[46.1 µM]
- CCOC(=O)c1nnn(CC(=O)Nc2ccccc2OC)c1C(=O)OCC
    14.4%	6.8%	12.3%	-7.9%	5.8%	2.5%	1.3%	0.2%
- O=S(=O)(c1cccc(-c2nnc3n2CCCCC3)c1)N1CCCC1
    11.1%[46.1 µM]	.	-5.3%	-7.6%	.	.	-7.7%	-6.5%
- O=C(C[n+]1cccc(O)c1)NCc1ccc(Cl)cc1
    18.0%[46.1 µM]	.	0.5%	-7.3%	.	0.0%	-3.3%	27.1%[46.1 µM]
- CCOC(=O)N1CCN(C(=O)c2cc(C)no2)CC1
    .	3.8%	-0.6%	3.6%	9.7%	0.6%	11.9%	.
- CCOC(=O)Nc1ccc(S(=O)(=O)NC2CCCCC2)cc1
    ?	.	0.1%	-2.4%	.	-3.9%	-15.7%	?
- CC(=O)Nc1ccc(C2=NN(CC#N)C(=O)SC2)cc1
    -11.5%	-0.7%	2.8%	-2.0%	-5.9%	10.2%	-6.0%	-2.2%
- CCCCCN(C(=O)CCC(=O)OCC(=O)N(CC#N)c1ccccc1)c1c(N)n(CCCC)c(=O)[nH]c1=O
    ?	.	-1.5%	-7.0%	.	.	21.6%	2.6%[46.1 µM]
- O=C1CCN(Cc2ccccc2)N1
    .	.	1.2%	-18.4%	.	0.7%	0.1%	.
- CN(C(=O)CNC(=O)c1ccc(Br)o1)C1CCCCC1
    1.7%	.	-2.4%	10.1%	.	5.9%	5.1%	4.0%
- CCc1ccc(C2CC(=O)NC(SCC(=O)OC(C)C)=C2C#N)cc1 (stereo not given)
    .	-2.8%	-7.8%	0.0%	-0.8%	-63.8%	-6.2%	.
- COc1ccc(NC(=O)C2CCN(S(=O)(=O)c3c(C)noc3C)CC2)cc1Cl
    -1.2%	1.8%	-4.6%	-28.3%	3.5%	-3.5%	-7.5%	4.9%
- Cc1cccc(C)c1OCC(=O)Nc1cccc(S(=O)(=O)N2CCCC2)c1
    ?	.	0.8%	-12.2%	.	.	6.4%	?
